Vaccinia mCherry: qHTS for Stage-Specific Inhibitors of Vaccinia Orthopoxvirus: mCherry Reporter Primary qHTS; Vaccinia virus mCherry reporter infection, fluorescence; about a quarter of the inactives have no number; Potency, µM (highest dose often 36.5 µM), for inactives: at the top dose activity change, negative = inhibition, actives largely listed as inhibitors; 0.63% of 310,000 active; AID 720579, 2013; active = well fitted inhibition curve with a large enough effect; inconclusive = small, poorly fitted or top-dose-only effect; inactive = no such curve, though single readings can be large or run the other way; tested in A549 cells; also: nearly all actives have a fitted effect of over 35% in size; inactives centre near -10
VACV Venus inh: qHTS for Stage-Specific Inhibitors of Vaccinia Orthopoxvirus: Venus Reporter Primary qHTS; AID 720580, 2013; Potency, µM (series often up to 36.5 µM), for the others: at the top dose activity change, negative = inhibition, hits mostly inhibitors; Vaccinia virus Venus reporter expression, fluorescence; 0.46% of 330,000 active; active means well fitted inhibition curve with a large enough effect; inconclusive means small, poorly fitted or top-dose-only effect; inactive means no such curve, though single readings can be large or run the other way; tested in A549 cells; also: nearly all actives have a fitted effect of over 30% in size; inactives centre near -10
* hit, by the source's call; i = inactive; u = inconclusive; x = not tested or not shown; [ ] = another dose, or the depositor's remark. % is scaled to controls: 0 for no effect and ±100 for the full control effect; potency is read from the fitted curve at half-maximal effect.

SMILES	Vaccinia mCherry	VACV Venus inh
CCOC(=O)C(CCc1nnc(N)s1)C(=O)OCC	i	-10%
Cc1ccc(CSCC(=O)Nc2ccc(N3CCOCC3)cc2N2CCOCC2)cc1	-11%	-2%
CC1Cn2cc(C(=O)Nc3ccccc3C(F)(F)F)c(=O)c3c(Cl)ccc(c32)O1 (stereo not given)	-7%	-7%
COc1ccc(CCNC(=O)Cn2cccc2C(=O)c2ccccc2)cc1OC	-17%	-15%
O=c1cc(-c2ccc(O)cc2)oc2ccccc12	i	10%
OCC[C@@H]1C[C@H](O)[C@@H](O)[C@]2(CCc3ccccc3CO2)O1	i	-3%
Cc1nnc(SCc2nc3ccccc3[nH]2)s1	x	-15%
CC(=O)N1CCc2cc(Br)cc(S(=O)(=O)N3CCN(C(=O)c4ccco4)CC3)c21	i	-18%
CCC1CCCCN1C(=O)CSc1n[nH]c(N)n1 (stereo not given)	-2%	-3%
CC1CCC(N2CCN(S(=O)(=O)Cc3ccccc3)CC2)CC1 (stereo not given)	-5%	-3%
C=C(C)Cn1c(N2CCN(CC)CC2)nc2c1c(=O)[nH]c(=O)n2C	-9%	-6%
O=C(COc1ccc(Cl)cc1Cl)N1CCN(c2ccccn2)CC1	-10%	-1%
C[C@H](O)[C@@H]1C(=O)N2CCc3ccc(-c4cccc(F)c4)cc3[C@@H]2C[C@@H]1N(C)C(=O)C(C)(C)C	-23%	-14%
COc1ccc(CNn2c(-c3cccs3)nc3ccccc3c2=O)cc1OC	-15%	-2%
CN(Cc1ccccc1)S(=O)(=O)c1cccc2nsnc12	-7%	-13%
C#CCN(C(=O)c1ccc(OC2CCN(Cc3ccccn3)CC2)cc1)C1CCCCC1	i	-10%
CC1CC(C)(C)CC2(C1)NC(=O)N(CC(=O)NCc1ccccc1F)C2=O (stereo not given)	-14%	-9%
Cc1ccccc1C(=O)N1CCC(C(=O)Nc2nc3ccc(F)cc3s2)CC1	u	-29%
COc1ccc(CNC(=O)c2ccc3c(c2)N(Cc2ccccc2C)C(=O)c2ccccc2S3=O)cc1 (stereo not given)	-9%	-16%
Cc1ccccc1Nc1nnc(SCC(=O)c2c(N)n(C3CC3)c(=O)[nH]c2=O)s1	-5%	-12%
CN1CCN(c2ncnc3c2ncn3[C@H]2CN(Cc3ccc4c(c3)OCO4)C[C@@H](CO)O2)CC1	32%[activator]	5%
COc1ccc(CNC(=O)CCC(=O)N2CCN(S(=O)(=O)c3ccc(Cl)cc3)CC2)cc1	i	-17%
COCC(=O)Nc1ccccc1-c1ccccc1	-15%	-4%
CC(=O)C[C@H](O)CC(=O)[C@H]1OC(=O)[C@H](C)CCCCc2ccccc21	i	-8%
Cc1nc2ccc(Cl)cc2n1C	-1%	-14%

Reprinted from the part before: 2 entries; new compounds follow.
SMILES	Vaccinia mCherry	VACV Venus inh
CC(=O)C[C@H](O)CC(=O)[C@H]1OC(=O)[C@H](C)CCCCc2ccccc21	i	-8%
Cc1nc2ccc(Cl)cc2n1C	-1%	-14%
COc1ccc(NC(=O)CC(C)n2nc(C)cc2C)cc1Cl (stereo not given)	-8%	-7%
COc1ccc(OC)c(-c2cc(C(F)(F)F)c3c(n2)sc2c(O)cc(=O)[nH]c23)c1	i	-10%
Nc1c(-c2ccccc2)n[nH]c1-c1ccccc1	-12%	-8%
CN(Cc1ccccc1)c1ccc(C(CC(N)=O)NC(=O)c2ccc(Br)cc2)cc1[N+](=O)[O-] (stereo not given)	-1%	-30%
Cc1cc(NC(=O)CSc2nccn2C)n(-c2ccccc2)n1	-16%	-14%
CCN1C(=O)[C@H]2[C@@H](c3ccc(OC)cc3)N[C@]3(CCCN(CCC(C)C)C3=O)[C@H]2C1=O	-9%	-13%
C=C1C2=CC(=O)OC(c3ccoc3)[C@]2(C)CCC1[C@]1(C)C=CC(=O)C(C)(C)C1CC(=O)OC (stereo not given in full)	-18%	-11%
CCN(Cc1ccncc1)Cc1cn[nH]c1-c1cc(OC)c(OC)c(OC)c1	i	-4%
CCN1CCN(Cc2ccccc2NC(=O)Nc2ccc(C)cc2)CC1	x	-8%
Cc1cc(N(C)C)c(C#N)c(N2CCOCC2)n1	x	-12%
COc1ccc(NC(=O)c2ccc(Oc3ncccn3)cc2)cc1	i	-5%
COc1cc(NC(=O)CN2C(=O)CN(C)C(=O)c3ccccc32)cc(OC)c1OC	-4%	-5%
CCCCC(CC)C1OCC(C[N+]2(C)CCOCC2)O1 (stereo not given)	i	1%
COc1cccc(NC(=O)c2ccccc2SC)c1	-18%	-8%
CCN(CC(=O)Nc1c(F)cccc1F)C(=O)CN1C(=O)c2ccccc2C1=O	-18%	-8%
CC(C)c1nc(SCC(=O)Nc2c[nH]c(=O)[nH]c2=O)c2cnn(-c3ccccc3)c2n1	0%	1%
CC(=O)Nc1ccc(S(=O)(=O)N(C)CC(=O)OCC(=O)NCc2ccco2)cc1	i	-9%
CCS(=O)(=O)N1CCC(C(=O)NCC2CCCO2)CC1 (stereo not given)	-11%	-8%
O=C(CSc1nnc(SCc2cccc3ccccc23)s1)N/N=C/C=C/c1ccccc1[N+](=O)[O-]	-14%	-9%
O=C(CN1C(=O)COc2ccc(S(=O)(=O)N3CCCCCC3)cc21)N1CCN(c2ccc(F)cc2)CC1	-13%	-5%
CN1CCc2cc3c(cc2[C@H]1[C@@H]1OC(=O)c2c1ccc1c2OCO1)OCO3	-6%	-15%
CC(C)Nc1nc(NC(C)(C)C)nc(Oc2ccc(=O)n(-c3ccccc3)n2)n1	x	-26%
CCNC(=S)N(CCc1ccc(OC)c(OC)c1)Cc1cc2cc(OC)ccc2[nH]c1=O	i	-12%
CCOc1cc(NC(=O)C2CC2)c(OCC)cc1NC(=O)c1ccccc1OCC	-15%	-26%
COc1ccc(-c2ccc3c(c2)C2CC3CCN2Cc2ccc(OC(F)(F)F)cc2)cc1 (stereo not given)	u	-14%

Later entries.
SMILES	Vaccinia mCherry	VACV Venus inh
O=c1[nH]c(/C=C\c2ccc(O)c(O)c2)nc(O)c1[N+](=O)[O-]	i	-10%
NC(=N\N=Cc1ccccc1)/C(N)=N/N=Cc1ccccc1	-14%	-16%
CC(=O)c1cccc(CN2CCN(Cc3ccc(C)cc3)C(CCO)C2)c1 (stereo not given)	-10%	-8%
O=C(NCc1ccc(OC(F)(F)F)cc1)C1CC(c2ccccc2[N+](=O)[O-])=NO1 (stereo not given)	-1%	-8%
CCN(CC(=O)Nc1ccc(OC)c(Cl)c1)CC(=O)NC(C)C	6%	-1%
COc1ccc(CN(C)CCc2ccccn2)cc1OC	-9%	5%
CN(C)c1ccc(NC(=O)c2cccc(N3C(=O)CCC3=O)c2)cc1	-10%	2%
O=C(NC(c1ccc(-c2ccccc2)cc1)c1cnccn1)C1CCN(Cc2ccc(Oc3ccccc3)cc2)CC1 (stereo not given)	u	u
N=C1c2ccccc2CN1c1ccc(S(=O)(=O)N2CCCCC2)cc1	i	-15%
Cc1ccc(NC(=O)C(CC(C)C)NC(N)=O)cc1 (stereo not given)	i	-2%
COc1ccc(CCNC(=O)c2ccc(SC)cc2OC)cc1	-11%	-7%
Cc1ccc(-n2nc(-c3ccco3)cc2C(=O)O)c(C)c1	i	-7%
COc1cccc(-c2nc(-c3cccc(C)c3)nc3cc(Cl)ccc23)c1	-12%	-5%
COC(=O)c1ccc(C23CC4(C2)[C@H](CN(C)[C@@H]4c2ccccc2)C3c2ccc(Cl)nc2)cc1 (stereo not given in full)	u	-8%
Cc1ccc(C(=O)N2N=C(c3ccc(Br)cc3)CC2c2ccccc2O)cc1 (stereo not given)	-26%	u
CCC(C(=O)Nc1ccc([N+](=O)[O-])cn1)c1ccccc1 (stereo not given)	i	-18%
CCC1CCCCN1C(=O)Nc1cc(Cl)ccc1OC (stereo not given)	-4%	-13%
CC(=O)Nc1ccc(S(=O)(=O)Nc2nc(-c3ccc(C(C)(C)C)cc3)cs2)cc1	i	-15%
O=[N+]([O-])c1ccc(C(O)CN=Cc2ccc(O)cc2O)cc1 (stereo not given)	-15%	-5%
FC(F)(F)c1ccccc1-c1ccc2nncn2c1	-6%	8%
O=S(=O)(c1ccccc1)N1CCC(n2cnc3ccccc32)CC1	-7%	-11%
CNc1cc(Cl)c2nonc2c1[N+](=O)[O-]	-27%	u
O=C(CNS(=O)(=O)c1c(F)cccc1F)NC1CCCc2ccccc21 (stereo not given)	i	-2%
O=C1CN(C(=O)/C=C/c2ccc(Cl)cc2)c2ccccc2N1	i	-20%
CCC(Sc1nc(N)c(NC(=O)c2ccc(OC)c(OC)c2)c(=O)[nH]1)C(=O)OC (stereo not given)	i	-9%

Entries of single compounds as entered above.
NC(=N\N=Cc1ccccc1)/C(N)=N/N=Cc1ccccc1 reads Vaccinia mCherry: -14%; VACV Venus inh: -16%
CCC(C(=O)Nc1ccc([N+](=O)[O-])cn1)c1ccccc1 (stereo not given) reads Vaccinia mCherry: i; VACV Venus inh: -18%

Molecules listed so far that have an NH in an aromatic ring:
SMILES	Vaccinia mCherry	VACV Venus inh
Cc1nnc(SCc2nc3ccccc3[nH]2)s1	x	-15%
CCC1CCCCN1C(=O)CSc1n[nH]c(N)n1 (stereo not given)	-2%	-3%
C=C(C)Cn1c(N2CCN(CC)CC2)nc2c1c(=O)[nH]c(=O)n2C	-9%	-6%
Cc1ccccc1Nc1nnc(SCC(=O)c2c(N)n(C3CC3)c(=O)[nH]c2=O)s1	-5%	-12%
COc1ccc(OC)c(-c2cc(C(F)(F)F)c3c(n2)sc2c(O)cc(=O)[nH]c23)c1	i	-10%
Nc1c(-c2ccccc2)n[nH]c1-c1ccccc1	-12%	-8%
CCN(Cc1ccncc1)Cc1cn[nH]c1-c1cc(OC)c(OC)c(OC)c1	i	-4%
CC(C)c1nc(SCC(=O)Nc2c[nH]c(=O)[nH]c2=O)c2cnn(-c3ccccc3)c2n1	0%	1%
CCNC(=S)N(CCc1ccc(OC)c(OC)c1)Cc1cc2cc(OC)ccc2[nH]c1=O	i	-12%
O=c1[nH]c(/C=C\c2ccc(O)c(O)c2)nc(O)c1[N+](=O)[O-]	i	-10%
CCC(Sc1nc(N)c(NC(=O)c2ccc(OC)c(OC)c2)c(=O)[nH]1)C(=O)OC (stereo not given)	i	-9%

Continuation.
SMILES	Vaccinia mCherry	VACV Venus inh
CN1C(=O)c2cccc3c(N)ccc(c23)C1=O	-10%	62%[activator]
CC(Oc1ccc(Br)cc1)C(=O)NCC(c1cccs1)N1CCOCC1 (stereo not given)	i	-4%
CSc1nsc(SCCN2C(=O)c3ccccc3C2=O)n1	x	-23%
CCc1nc2sccc2c(=O)n1N	2%	-13%
CCCN1CCCC[C@H]1C(=O)Nc1c(C)cccc1C	i	-3%
O=C(CCCCC(=O)NC1CCCC1)NC1CCCC1	i	-11%
O=C(Nc1ccc(Cl)cc1)N1CCN(c2ccccc2)CC1	-39%	u
O=C(COc1ccc(Cl)cc1)OCc1cc(=O)n2nc(-c3cccs3)sc2n1	-9%	-11%
COc1cccc(NC(=O)c2sc(Cl)nc2C)c1	u	u
CC1O[C@@H](O[C@H](C)CC/C=C/C(=O)O)C(O)C[C@H]1O (stereo not given in full)	i	-14%
COc1ccc(N2CCN(CCCNC(=O)C3CCN(S(=O)(=O)N4CCOCC4)CC3)CC2)cc1	-6%	-16%
O=C(OCc1ccccc1)Oc1cncc(C(=O)O)c1	i	-9%
Nc1nonc1/C(=N/O)N1CCN(CCO)CC1	-9%	-7%
Cc1ccc(N(C(=O)c2ccc(S(=O)(=O)N3CCCC3)cc2)C2C=CS(=O)(=O)C2)cc1 (stereo not given)	-8%	-10%
NS(=O)(=O)c1ccc(NC(=S)NCc2ccc(F)cc2)cc1	i	-6%
CCN1CCN(S(=O)(=O)c2ccc(Cl)c(C(=O)Nc3ccccc3N3CCOCC3)c2)CC1	-8%	-6%
Cc1ccc(C(C(=O)NC2CCCC2)N(C(=O)c2csnn2)C2CC2)cc1 (stereo not given)	-2%	0%
O=c1[nH]nnc2c1ncn2C1OC(CO)C(O)C1O (stereo not given)	-3%	-24%
CCc1ccc(NC(=O)CC2C(=O)N(c3ccc(F)cc3)C(=O)N2Cc2ccc(F)cc2)cc1 (stereo not given)	-9%	-15%
Cc1ccc(OCC(=O)N(C)CC(=O)Nc2ccc(F)cc2)c([N+](=O)[O-])n1	1%	-5%
COc1ccc(C(=O)Nc2nc3ccccc3[nH]2)cc1S(=O)(=O)N1CCCC1	x	-15%
Cc1cccn2c(=O)c(C(=O)NCCc3ccccc3)cnc12	-2%	-5%
Cc1onc(C(N)=O)c1C(=O)Nc1ncc(C(F)(F)F)cc1Cl	-22%	-5%
FC(F)(F)c1ccc(CSc2ccccn2)cc1	-2%	11%
CCCCC(c1nnnn1Cc1ccco1)N1CCN(c2nc3ccccc3s2)CC1 (stereo not given)	-18%	-10%

(further entries)
SMILES	Vaccinia mCherry	VACV Venus inh
CN(CC(=O)NC1CCCCCCC1)S(=O)(=O)c1cnc[nH]1	i	12%
COc1cccc(NC(=O)C2CCCC2)c1	i	-14%
Cc1cc(=O)[nH]c(CN2CCOCC2)n1	-18%	-8%
O=C(Nc1ccc(Cl)cc1Cl)[C@@H]1CC=C[C@@H]2CCN(C3CCCCC3)C(=O)[C@@H]21	-1%	-7%
CN(C)CCCN(C(=O)c1ccco1)c1nc2ccc(Br)cc2s1	-2%	-7%
COc1cc(S(=O)(=O)N2CCn3cccc3C2C)ccc1NC(C)=O (stereo not given)	-16%	-10%
CCOC(=O)c1c(NC(=O)c2nc(SC)ncc2Cl)sc(C)c1C	-11%	-5%
Cc1ccc(S(=O)(=O)/N=C2/NC(=O)/C(=C/c3cccnc3)S2)cc1	x	-9%
Cc1ccc(CNC(=O)Nc2cn(CC(C)C)c(=O)c3ccccc23)cc1	5%	-4%
